Bioassay records: PubChem, National Center for Advancing Translational Sciences (NCATS)
PINK1 modulator: PINK1 expression modulation; PINK1 immunofluorescence, high-content cytometry, 24 h; Potency, µM (top dose mostly 76.6 µM), for inactives: top-dose activation (PINK1 increase), hits mostly activators; 0.2% of 410,000 active; active = well fitted activation curve with a large enough effect; inconclusive = small, poorly fitted or top-dose-only effect; inactive = flat fitted curve, though single readings scatter; cell line not stated here;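 also: potency is read from the fitted curve at half-maximal effect; % of control where 0% means no effect; nearly all actives have a fitted effect of over 65% in size; a mitochondrial uncoupler was the plate control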
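Readout is PINK1 immunofluorescence, quantified alongside mitochondrial, cell and nuclear markers by laser-scanning microplate cytometry. Cells from a stable line were exposed to compound titrations (5 concentrations) for 24 hours, with CCCP controls.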
Six1-Eya2 inh: Six1/Eya2 interaction inhibition. 0.56% of 360,000 active. AID 651725. activity change, % (test concentration not listed). AlphaScreen GST-Six1/His-Eya2 binding, biochemical; active compounds read low; control for the full effect not named in the record. Q15475+O00167; in the data active = activity change below about -65%; inconclusive = about -30% to -65%; inactive = above about -30%; also: % is scaled to controls: 0 for no effect and ±100 for the full control effect
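Compounds are tested against tagged Six1 and Eya2 proteins bridged by glutathione donor and nickel acceptor beads; after a one-hour incubation at 37 °C without light, AlphaScreen emission is recorded.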
D2 ag: agonists of human D2 dopamine receptor (beta-arrestin). P14416. DiscoveRx PathHunter D2 beta-arrestin, luminescence, 90 min; 100% = 57 uM dopamine signal. activation, % (no concentration beside the values). 0.084% of 360,000 active; in the data active = activation above about 40%; inconclusive = about 15% to 40%; inactive = below about 15%; also: compound concentration not given in the record; the text of the record calls up to 30% inactive
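DiscoveRx PathHunter D2 beta-arrestin cells (2,100/well) attached overnight, then compound-stimulated 90 min at 37 C in HBSS/10 mM HEPES/0.1% Tween-20 buffer; beta-galactosidase complementation read by luminescence after 1 h at ambient temperature. Dopamine 57 uM final (EC100) as control.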
CtBP-E1A inh: blocks the CtBP interaction with E1A. AlphaScreen GST-E1A/His-CtBP binding, 1536-well; active compounds read low; control for the full effect not named in the record. activity change, % (concentration not given with the values). 0.49% of 340,000 active. AID 651724; in the data active means activity change below about -65%; inconclusive means about -30% to -65%; inactive means above about -30%; also: % is scaled to controls: 0 for no effect and ±100 for the full control effect
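GST-E1A and His-tagged CtBP (125 nM each as 5X stock) were preincubated with pin-transferred compound for 2 h at 37 °C in the dark, then glutathione donor and nickel acceptor beads were added for 1 h before AlphaScreen reading.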
Sfp inh: inhibitors of Bacillus subtilis Sfp phosphopantetheinyl transferase; Potency, µM, for inactives: max response, negative = inhibition, most hits filed as inhibitors; Biochemical Sfp PPTase activity, qHTS; AID 1490; Q9F4F7; 3.5% of 310,000 active; active = well fitted inhibition curve with a large enough effect; inconclusive = small, poorly fitted or top-dose-only effect, or another doubt; inactive = no such curve, though single readings can be large or run the other way;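 also: the enzyme is Sfp with the accession as filed and its product quenches rhodamine fluorescence; potency is read from the fitted curve at half-maximal effect; 0% = enzyme reaction without inhibitor and -100% = no enzyme wells; top concentration of the series not given in the record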
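Sfp 15 nM + cpd, 15 min RT; start w/ rhodamine-CoA 5 uM, BHQ-2-YbbR 12.5 uM (final); 50 mM Hepes pH 7.6, 10 mM MgCl2, 0.01% NP-40, 0.01% BSA; read 525/598 nm at 0 and 30 min.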
TRPV1 potentiator: human TRPV1 potentiation. 0.02% of 320,000 active. AID 540277. potentiation, % at 8.33 µM. TRPV1-expressing cells, Fluo-8 calcium influx, capsaicin EC20 potentiation; host cell line not named in the record; control for the full effect not named in the record. Q8NER1; active means potentiation above 80%; inconclusive means 30% to 80%; inactive means below 30%; also: 0% is about no effect
Target sequence (Q8NER1 whole entry, looked up): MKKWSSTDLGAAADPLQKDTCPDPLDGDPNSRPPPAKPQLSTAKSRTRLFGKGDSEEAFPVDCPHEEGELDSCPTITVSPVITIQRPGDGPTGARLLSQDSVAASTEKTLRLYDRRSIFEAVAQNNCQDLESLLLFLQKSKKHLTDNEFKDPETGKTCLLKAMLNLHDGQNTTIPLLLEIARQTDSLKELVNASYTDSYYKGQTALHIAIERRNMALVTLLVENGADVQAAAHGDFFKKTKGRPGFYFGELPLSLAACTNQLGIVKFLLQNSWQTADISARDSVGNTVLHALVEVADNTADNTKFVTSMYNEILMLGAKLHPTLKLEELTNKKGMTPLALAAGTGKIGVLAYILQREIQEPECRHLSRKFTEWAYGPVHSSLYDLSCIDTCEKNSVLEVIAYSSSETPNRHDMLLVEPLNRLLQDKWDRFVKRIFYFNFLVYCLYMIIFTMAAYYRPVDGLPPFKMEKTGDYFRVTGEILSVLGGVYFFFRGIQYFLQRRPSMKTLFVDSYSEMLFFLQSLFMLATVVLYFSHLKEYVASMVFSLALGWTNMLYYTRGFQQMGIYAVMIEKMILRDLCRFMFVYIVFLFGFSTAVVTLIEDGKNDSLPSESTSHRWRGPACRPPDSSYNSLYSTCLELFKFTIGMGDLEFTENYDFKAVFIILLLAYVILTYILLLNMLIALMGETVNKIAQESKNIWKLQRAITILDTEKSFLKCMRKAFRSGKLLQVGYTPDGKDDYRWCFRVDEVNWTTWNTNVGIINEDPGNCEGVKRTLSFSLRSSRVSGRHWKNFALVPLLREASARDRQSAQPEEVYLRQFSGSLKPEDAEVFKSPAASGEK
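TRPV1-expressing cells were cultured overnight at 35.5C and loaded with Fluo-8 calcium dye for 40 to 90 min at room temperature. After a 10 s baseline, compound was added and calcium influx was read kinetically for 3 min (ex 480/em 520 nm).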
D2 potentiator: human D2 receptor positive allosteric modulation; DiscoveRx D2 beta-arrestin cells, luminescence, 90 min; 100% = 57 uM dopamine signal; potentiation, % (concentration not given with the values); 0.23% of 360,000 active; AID 624464; active = potentiation of 50% or more; inconclusive = 30% to 50%; inactive = 30% or less;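 also: compound concentration not given in the record; tested on top of an EC20 dose of dopamine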
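PathHunter beta-arrestin assay in DiscoveRx D2 cells. Compounds were added with an EC20 of dopamine (50 nM final) for 90 min at 37 deg C. Luminescence was read 1 h after detection reagent, with 57 uM dopamine as the EC100 control.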
The depositor's hits bear a star; ? = inconclusive; nt = not tested or not shown; [ ] = another dose, or the depositor's remark. Random draw from the library. About 3.7% of those tested had a hit in this group.

entry	Compound	PINK1 modulator	Six1-Eya2 inh	D2 ag	CtBP-E1A inh
1	COC(=O)c1ccc(N2C(=O)CC(N(C)Cc3ccccc3)C2=O)cc1 (stereo not drawn)	-1.5%	5	-3.7	1
2	COc1ccc(C2=CSC3=NCCN23)cc1F	-1.8%	13	4.1	-8
3	O=C(CN1CCN(Cc2ccc(F)cc2)C1=O)NCc1cccs1	0.4%	2	-0.1	-1
4	NNC(=O)c1cc2c(ccc3ccccc32)o1	0.4%	-3	?	0
5	N#C/C(=C\c1cccc(Br)c1)C(=O)N1CCCCC1	-1.7%	-3	1.2	-2
6	COc1cc(C2C3=C(CCCC3=O)Nc3[nH]n(-c4ccccc4)c(=O)c32)ccc1OC(C)=O (stereo not drawn)	-0.6%	4	-2.2	0
7	CCCn1c(SCCN2CCOCC2)nc2c1c(=O)n(C)c(=O)n2C	0.0%	-1	3.7	12
8	O=CNc1cc(-c2ccc(C(=O)NC3CC3)cc2)cn2c(-c3ccc(F)c(Cl)c3)cnc12	0.6%	-15	11	-12
9	C=CCn1cc(C(=O)NCCCOC)c(=O)c2cc(S(=O)(=O)N3CCC(C)CC3)ccc21	2.5%	-5	1.4	3
10	O=c1cc(CCc2ccccc2)[nH]c(=O)[nH]1	3.6%	-2	5.7	2
11	CC1CCN(C(=O)COC(=O)CCCN2C(=O)c3cccc4cccc(c34)C2=O)CC1	-0.5%	-1	1.1	-2
12	O=C1CC(c2cccc(Cl)c2)Cc2nc(N3CCOCC3)ncc21 (stereo not drawn)	0.8%	24	-3.6	28
13	CC(C)c1c(O)ccc2c1CC[C@H]1C(C)(C)CCC[C@]21C	-1.0%	-18	-4.9	-10
14	CC(C)c1ccc2c(c1)C1Cc3ccccc3C1N2 (stereo not drawn)	?	-1	6.7	-21
15	Cc1ccc2c(CN3CCN(S(=O)(=O)c4ccccc4C(F)(F)F)CC3)cc(=O)oc2c1C	-1.2%	-1	5.8	-24

entry	Sfp inh	TRPV1 potentiator	D2 potentiator
1	?	-3	-7
2	-10%	4	-1
3	9%	nt	-2
4	1%	-7	20
5	-1%	-12	-4
6	6%	4	-8
7	34%[activator]	13	3
8	nt	nt	2
9	nt	nt	4
10	nt	nt	-8
11	8%	3	8
12	-7%	-32	-19
13	nt	nt	-8
14	-7%	2	7
15	nt	11	-1

Continuation.
entry	Compound	PINK1 modulator	Six1-Eya2 inh	D2 ag	CtBP-E1A inh
16	Cc1ccc(Cn2nc(C)c(/C=N/NC(=O)c3cccnc3)c2C)cc1	2.6%	-12	-7.6	9
17	CC(C)OC(=O)CSc1nc2c(cc1C#N)CCCCC2	0.5%	9	-0.2	-15
18	COc1ccc(S(=O)(=O)N(C)C[C@@H]2OCc3cn(nn3)CCCC(=O)N([C@@H](C)CO)C[C@H]2C)cc1	0.7%	4	-8.2	1
19	O=C(Oc1cccc2cccnc12)c1ccc2c(c1)OCCO2	-0.4%	?	-0.9	?
20	O=C(N/N=C/c1ccc2cccc(OCc3ccccc3)c2n1)c1ccc(Br)cc1	-1.7%	-3	-1.1	2
21	O=C(Nc1ccc(O)cc1)c1ccccc1OCc1ccccc1	-1.4%	-12	2.1	-6
22	Cc1ccc2[nH]c3c(Cl)ncnc3c2c1	0.7%	-2	1.5	-2
23	Cc1ccc(NC2(C(N)=O)CCCC2)cc1	0.6%	-2	-2.3	0
24	COc1ccc(N2C(=O)CCC2(C#N)c2ccc(Br)cc2)cc1 (stereo not drawn)	-3.2%	0	-4.5	8
25	O=C(CSc1nnc(-c2ccncc2)n1Cc1ccco1)Nc1cccc(O)c1	-2.8%	3	-4.3	1
26	O=C(Nn1cc(C(=O)Nc2ccccc2F)c2ccccc2c1=O)c1cnccn1	-0.8%	-78*	-2.5	?
27	COc1ccc(/C=C/C(=O)N(C)C2(C)CCS(=O)(=O)C2)cc1 (stereo not drawn)	0.3%	10	-1.7	0
28	O=C(Cc1ccccc1)NCCSCc1ccccc1	-0.6%	6	-2.1	6
29	Cn1c(=O)c(=O)n(C)c2cc(S(=O)(=O)NCCOc3ccccc3)ccc21	4.7%	20	-6.3	-16
30	OCCOCCN1CCN(C(=S)Nc2ccccc2)CC1	-1.7%	10	-2.3	nt

entry	Sfp inh	TRPV1 potentiator	D2 potentiator
16	-12%	-5	13
17	9%	-5	-11
18	nt	nt	3
19	?	7	-22
20	0%	?	-34
21	-3%	0	0
22	-17%	10	-9
23	nt	nt	-4
24	1%	-6	-8
25	-6%	-6	-3
26	7%	-10	1
27	nt	-4	-2
28	1%	-10	-6
29	5%	8	-3
30	9%	5	-13

(next part)
entry	Compound	PINK1 modulator	Six1-Eya2 inh	D2 ag	CtBP-E1A inh
31	CCc1cc(=O)oc2c(C)c(OCC(=O)NCC3CCC(C(=O)O)CC3)ccc12 (stereo not drawn)	0.5%	-1	1.3	6
32	O=C(CSc1nc2[nH]c(=O)cc(O)c2s1)Nc1cc(Cl)cc(Cl)c1	-1.5%	-1	7.0	2
33	COc1ccccc1C1CC(=O)Oc2cc(O)ccc21 (stereo not drawn)	-0.6%	-4	2.5	0
34	O=C(Cn1cnc2sc(-c3ccccc3)cc2c1=O)NCc1ccccc1	?	4	-1.9	-5
35	CCOC(=O)C1CCN(C(=O)c2ccc(S(=O)(=O)Nc3ccccc3Cl)cc2)CC1	0.0%	-6	2.8	-3
36	COc1ccc(CN2CC(C(=O)NCc3ccc4c(c3)OCO4)CC2=O)cc1 (stereo not drawn)	4.1%[38.3 µM]	0	-3.4	1
37	COc1ccc(OCC(=O)N2CCc3ccccc3C2)cc1	0.5%	-2	-0.6	nt
38	COc1ccc(C(=O)N2CCN(C(=O)c3cc(OC)c(OC)c(OC)c3)CC2)cc1	-0.8%	4	-2.9	8
39	CC(NC(=O)COC(=O)c1ccccc1F)C1CC2CCC1C2 (stereo not drawn)	6.3%	-3	-1.1	nt
40	O=C(CN(c1ccc(F)cc1)S(=O)(=O)c1ccc2c(c1)OCCO2)Nc1ccccc1	nt	-1	-1.2	-8
41	O=C(Nc1ccccc1)c1ccc(CN2CCC(Cc3ccccc3)CC2)cc1	4.9%	-1	-5.4	-1
42	COc1ccc(C(=O)Nn2cnc3scc(-c4cccs4)c3c2=O)c(O)c1	-0.7%	-24	-2.0	-10
43	CC(C)NC(=O)C1(C)CCN1C(=O)C1(c2ccccc2)CC1 (stereo not drawn)	0.1%	2	-2.3	10
44	Cc1ccccc1OCC(=O)OCC(=O)Nc1ccc2c(c1)OCCO2	-0.8%	-4	-5.6	nt
45	CCCCc1nnc2c(N(C)S(=O)(=O)c3ccc(C)cc3)nc3ccccc3n12	-1.3%	7	0.4	-4

entry	Sfp inh	TRPV1 potentiator	D2 potentiator
31	14%	-10	-6
32	-28%	-38	-4
33	3%	nt	nt
34	3%	13	1
35	nt	?	19
36	16%	-2	-8
37	5%	-20	-4
38	27%	-6	-10
39	nt	nt	-13
40	35%[activator]	12	-21
41	nt	nt	-29
42	25%	2	2
43	nt	nt	2
44	nt	13	-6
45	13%	7	-1

(listing goes on)
entry	Compound	PINK1 modulator	Six1-Eya2 inh	D2 ag	CtBP-E1A inh
46	Nc1cc(=O)[nH]c(SCC(=O)Nc2cccc([N+](=O)[O-])c2)n1	-0.3%	0	-3.8	2
47	C[C@H]1CN([C@@H](C)CO)C(=O)CCCn2nncc2CO[C@H]1CN(C)C(=O)CCC(F)(F)F	1.4%	-6	-9.5	-18
48	COc1ccc([C@@H]2OC2(C(N)=O)C(N)=O)cc1	-1.3%	-1	-3.7	0
49	CCOc1ccc(-c2cc(C(=O)N/N=C(\C)c3cccnc3)c3ccccc3n2)c(OCC)c1	15%	-15	-3.7	1
50	FC(F)Oc1ccc(NC(=S)NNc2ccnc3cc(Cl)ccc23)cc1	?	?	13	0
51	CCOc1cc2[nH]c(=S)n(CCCOC)c(=O)c2cc1OCC	7.5%[38.3 µM]	-2	4.9	-6

entry	Sfp inh	TRPV1 potentiator	D2 potentiator
46	6%	8	-28
47	nt	nt	5
48	11%	-1	-4
49	-6%	18	-17
50	-16%	-8	-1
51	-6%	6	-2
